Source: PubChem BioAssay
SARS PLpro yeast: blocks SARS-CoV papain-like protease in a yeast assay; Potency, µM (titrated, usually from 32.9 µM), inactives show top-dose activity, positive = growth rescue; S. cerevisiae expressing SARS-CoV PLpro, growth rescue; control for the full effect not named in the record; AID 485353; hit rate 0.19% among 330,000; active means well fitted rising curve with a large enough effect; inconclusive means small, poorly fitted or top-dose-only effect; inactive means no such curve, though single readings can be large or run the other way; note: 0% is about no effect; nearly all actives have a fitted effect of over 55% in size; growth read by luminescence after 48 h
Cruzain inh Det: cruzain (T. cruzi) inhibition with detergent; hit rate 0.43% among 200,000; P25779; Potency, µM, without a hit: max response, negative = inhibition, usual class: inhibitors; purified cruzain, Z-FR-AMC fluorescence, 0.01% Triton; AID 1478;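 note: plate controls were neutral wells for no effect and buffer without enzyme for full effect; nearly all actives have a fitted effect of over 40% in size; top concentration of the series not given in the record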
Target sequence (P25779 123-467 limits assumed): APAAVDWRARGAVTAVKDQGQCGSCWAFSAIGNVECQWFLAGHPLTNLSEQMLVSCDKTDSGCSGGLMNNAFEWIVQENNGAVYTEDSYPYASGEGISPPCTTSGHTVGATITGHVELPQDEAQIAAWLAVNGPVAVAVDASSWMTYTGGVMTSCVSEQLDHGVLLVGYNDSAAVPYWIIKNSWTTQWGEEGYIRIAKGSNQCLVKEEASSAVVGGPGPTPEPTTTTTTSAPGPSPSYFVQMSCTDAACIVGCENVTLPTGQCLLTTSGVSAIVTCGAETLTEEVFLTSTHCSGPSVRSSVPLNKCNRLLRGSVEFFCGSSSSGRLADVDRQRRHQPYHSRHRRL
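Detergent-containing arm of a paired screen for aggregation-based inhibition: 0.01% Triton X-100 present. Cruzain at 1.5 nM cleaved 2 uM Z-FR-AMC at pH 5.5 with 5 mM DTT; AMC fluorescence gain over 60 s measured activity.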
LASV entry inh: blocks Lassa virus binding to or entry into cells; hit rate 1.2% among 300,000; Lassa virus pseudotype entry inhibition, cell reporter; control for the full effect not named in the record; Potency, µM (top dose mostly 37.9 µM), for inactives: at the top dose activity change, negative = inhibition, hits mostly inhibitors; AID 540256; active means well fitted inhibition curve with a large enough effect; inconclusive means small, poorly fitted or top-dose-only effect, or effect the other way; inactive means flat fitted curve, though single readings scatter; tested in HEK293 cells; note: % is set by controls: 0 for no effect and ±100 for the full control effect; nearly all actives have a fitted effect of over 50% in size; luciferase read-out
RE007 growth inh: less growth of the S. pombe RE007 Vpr strain. Potency, µM (series often up to 92.2 µM), inactives show top-dose activity change, negative = less growth. S. pombe RE007 Vpr strain, BacTiter-Glo ATP luminescence, 24 h; control for the full effect not named in the record. hit rate 0.21% among 360,000; active = well fitted falling curve with a large enough effect; inconclusive = small, poorly fitted or top-dose-only effect; inactive = no such curve, though single readings can be large or run the other way;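 note: % is set by controls: 0 for no effect and ±100 for the full control effect; nearly all actives have a fitted effect of over 50% in size; the assay follows cell death caused by Vpr and the record does not say whether a fall means rescue or toxicity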
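Fission yeast RE007 carrying one integrated HIV-1 vpr copy, seeded at OD 0.01 in PMG+AL medium with 23 nL pinned compound. Grown 24 h at 30 degrees; viability read by BacTiter-Glo luminescence after 5 min.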
Cruzain inh noDet: blocks cruzain activity in detergent-free assay. purified cruzain, Z-FR-AMC fluorescence, no detergent. hit rate 2.3% among 200,000. AID 1476. Potency, µM, for inactives: max response, negative = inhibition, usual class: inhibitors;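 note: plate controls were enzyme without inhibitor for no effect and buffer without enzyme for full effect; nearly all actives have a fitted effect of over 40% in size; top concentration of the series not given in the record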
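Detergent-free condition (0.00005% Triton X-100) in acetate buffer pH 5.5 with DTT. 1.5 nM enzyme and compound were pre-mixed 15 min, then 2 uM Z-FR-AMC substrate added; reaction progress from fluorescence change between first and third reads (60 s).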
NS1 function inh: influenza NS1 inhibition; S. cerevisiae slowed by influenza A NS1, growth recovery by OD600; Potency, µM (highest dose often 46.1 µM), for inactives: top-dose activity, positive = more growth; hit rate 0.4% among 270,000; active means well fitted rising curve with a large enough effect; inconclusive means small, poorly fitted or top-dose-only effect; inactive means no such curve, though single readings can be large or run the other way; note: nearly all actives have a fitted effect of over 50% in size
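A cell-based growth assay was used: compounds that relieve NS1-induced slow growth of budding yeast raise OD600. Assay medium was yeast nitrogen base with ammonium sulphate and -URA supplement, pH 6.0, with 2% galactose.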
MARV entry inh: inhibitors of Marburg virus binding or cell entry | hit rate 1.8% among 300,000 | Potency, µM (highest dose often 37.8 µM), for inactives: top-dose activity change, negative = inhibition, most hits filed as inhibitors | Marburg virus pseudotyped entry inhibition, cell reporter; control for the full effect not named in the record; about a third of the inactives were read at about 46 µM; active = well fitted inhibition curve with a large enough effect; inconclusive = small, poorly fitted or top-dose-only effect, or effect the other way; inactive = flat fitted curve, though single readings scatter; tested in HEK293 cells; about a fifth of its hits are not listed in these tables; note: % is set by controls: 0 for no effect and ±100 for the full control effect; luciferase read-out
2A StopGo: FMDV 2A StopGo reporter, luciferase signal; human cells with a luciferase reporter of 2A StopGo recoding; control for the full effect not named in the record; Potency, µM (doses to about 57.9 µM), inactives show at the highest dose signal change, negative = less light; hit rate 1.2% among 410,000; AID 1159524; active = well fitted falling curve with a large enough effect; inconclusive = small, poorly fitted or top-dose-only effect; inactive = no such curve, though single readings can be large or run the other way; tested in HEK293T cells; note: % is set by controls: 0 for no effect and ±100 for the full control effect; nearly all actives have a fitted effect of over 45% in size; luciferase light after 4 h
Starred values were filed as active, the others as inactive; ? = inconclusive; . = not tested or not shown; & = joins results of further samples; [ ] = dose if it differs, or a comment. Unless noted, calls come from the whole dose curve; as a rule, active = well fitted curve in the direction sought with a large enough effect; inconclusive = small, poorly fitted or top-dose-only effect, or another doubt; inactive = no such curve, though single readings can be large; an effect the other way counts as inactive or inconclusive. Potency is the fitted concentration of half-maximal effect.

No.	molecule	MARV entry inh	2A StopGo	RE007 growth inh	LASV entry inh	NS1 function inh	SARS PLpro yeast	Cruzain inh Det	Cruzain inh noDet
1	CCCCOC(=O)c1ccc(Nc2ncnc3nc[nH]c23)cc1	12.9%	37.6%[activator]	3.6%	3.3%	12.1%	14.4%	0.4%	-0.1%
2	Cc1ccccc1CN(C)C(=O)c1ccc2ccccc2n1	21.3%[46.1 µM]	32.1%[activator]	-12.4%	-2.5%	-0.6%	4.7%	.	.
3	Cc1cc(NC(=O)CC2(CC(=O)O)CCCC2)n(C)n1	-7.8%[46.1 µM]	-5.2%	1.0%	14.1%[46.1 µM]	-37.0%	1.2%	.	.
4	CCc1ccc(CN2C(=O)CCC2(C)C(=O)NC2CCCC2)cc1 (stereo unspecified)	0.8%	-17.0%	1.2%	-7.1%	-3.7%	1.3%	7.4%	15.1%
5	CC(C)=CCN1CCN(Cc2ccc(Sc3nncn3C)o2)CC1CCO (stereo unspecified)	-6.9%[46.1 µM]	-10.6%	3.7%	-14.4%	1.5%	0.9%	.	.
6	O=C(O)CCCC(=O)Nc1ccccc1Oc1ccccc1	2.2%[46.1 µM]	1.4%	0.7%	14.1%	2.9%	0.9%	.	.
7	CCN1CCc2c(sc(NC(=O)c3ccc(S(=O)(=O)N4CC(C)OC(C)C4)cc3)c2C(N)=O)C1 (stereo unspecified)	.	-5.6%	-2.9%	.	9.4%	0.5%	.	.
8	O=C(N/N=C\c1ccc(Cl)s1)c1cccs1	-14.4%	61.0%[activator]	-16.4%	?	-17.8%	-16.2%	-6.0%	-4.8%
9	CC[C@]12c3[nH]c4cc(-c5ccco5)ccc4c3CCN1C(=O)[C@@H](CC(=O)NC/C=C(\C)CCC=C(C)C)C[C@@H]2C(=O)N1CCN(C(=O)c2ccco2)CC1	-2.5%	?	-3.9%	.	.	17.0%	.	.
10	COc1cc(O)c(C(CCN2CCCCC2)c2cc(OC)c(OC)c(OC)c2)c(OC)c1 (stereo unspecified)	0.0%	-0.2%	-7.1%	.	1.6%	1.8%	.	.
11	Cc1ccc(C)c(CN2CCCN(C(=O)Cn3ncc4c3-c3ccccc3OC4)C2)c1	.	?	-2.6%	.	-12.2%	10.7%	-3.9%	?
12	O=c1cc(C23CC4CC(CC(C4)C2)C3)[nH][nH]1	-0.7%&-0.7%	.	7.5%	16.4%	5.8%	.	1.7%	-6.6%
13	O=S(=O)(Nc1ccc(Cc2ccncc2)cc1)c1ccc(Cl)cc1	?	-29.3%	-12.4%	?	-1.7%	0.7%	.	.
14	CCC(C)Nc1ncnc2c1cnn2Cc1ccc(Cl)cc1 (stereo unspecified)	.	-17.6%	-8.4%	.	0.7%	-12.4%	-5.6%	8.0%
15	CCC(NS(=O)(=O)c1ccc(C)cc1)C(=O)N1CCOCCOCCOCC1 (stereo unspecified)	-4.9%[46.1 µM]	10.1%	-11.0%	3.0%	7.1%	1.7%	.	.
16	Cc1onc(-c2ccccc2)c1-c1nnc(CN2CCN(S(=O)(=O)c3ccccc3F)CC2)o1	?	-20.1%	-5.7%	-22.3%	.	-1.5%	.	.
17	CCc1ccc(NC(=O)N(Cc2ccc(C)cc2)Cc2cccn2-c2nnc(N3CCCC3=O)s2)cc1	?	20.5%	.	.	.	.	-2.7%	-9.5%
18	O=C(Cn1ncc2c1-c1ccccc1OC2)N1CCN(c2ccccc2F)CC1	3.5%[46.1 µM]	?	.	.	.	.	-4.0%	-10.8%
19	COc1ccc(-c2[nH]c(-c3cc(OC)c4c(c3)OCO4)nc2-c2ccccc2)cc1	?	-2.8%	-1.6%	?	1.5%	-7.8%	5.5%	-20.1%
20	Cc1cc(C)cc(OCC(=O)Nc2cnn(CCCC(=O)O)c2)c1	19.5%[46.1 µM]	-2.8%	5.7%	26.0%[46.1 µM]	-3.0%	-1.0%	.	.
21	CC(=O)N/C(=C\c1ccccc1)C(=O)N1CCOCC1	?	2.0%	-2.6%	2.6%	5.1%	1.0%	.	.
22	O=c1oc2ccccc2c(Nc2cccc3cccnc23)c1[N+](=O)[O-]	0.0%[46.1 µM]	-9.0%	15.0%	-0.9%	4.9%	1.3%	.	.
23	CN(C)c1nccc(Nc2ccccc2)c1C#N	0.0%	0.2%	-1.1%	1.7%	-8.0%	5.8%	1.6%	0.0%
24	COCCNc1oc(-c2ccccc2Cl)nc1C#N	-7.1%	23.6%	14.4%	.	-12.8%	-1.0%	9.0%	?
25	Cc1nc2ccc(NC(=O)c3ccc(Cl)c(NC(=O)c4cccs4)c3)cc2s1	?	-15.0%	-18.3%	-29.4%	11.2%	-4.5%	-2.3%	?
26	CCNC(=O)COC(=O)c1cc(-c2ccco2)nc2ccccc12	.	-1.9%	-1.3%	.	5.1%	-1.2%	.	.
27	O=C(CCSCc1cnn(-c2ccccc2)c1-n1cccc1)NCc1ccc(Cl)cc1	-7.7%[46.1 µM]	-25.9%	.	17.8%[46.1 µM]	.	.	-4.7%	5.7%
28	Cn1nnnc1SCC(=O)Nc1ccccc1N1CCOCC1	-0.5%	-0.4%	12.0%	6.4%	3.9%	3.3%	4.3%	-2.6%
29	COc1ccc2c(c1)c1ncn(CCN3CCCC3)c(=O)c1n2C	?	-2.9%	-18.1%	21.1%	-10.9%	0.5%	-9.4%	-17.1%
30	COc1ccccc1NC(=O)C(C/C=C(\C)Cl)C(C)=O (stereo unspecified)	-19.8%	.	9.9%	-0.5%	-4.4%	-0.2%	2.2%	-3.0%
31	CCCC(c1nnnn1CS(=O)(=O)c1ccc(C)cc1)N1CCC(C(N)=O)CC1 (stereo unspecified)	1.8%[46.1 µM]	-6.0%	14.6%	5.9%[46.1 µM]	4.2%	-1.7%	.	.
32	CN1C(=O)c2cccc(NC(=O)C3CCCCC3)c2C1=O	.	-9.5%	11.6%	.	-13.1%	-7.9%	-1.1%	20.2%
33	CN1CCN(C(=O)CN(Cc2ccccc2)S(C)(=O)=O)CC1	15.6%	20.2%	3.4%	22.6%	1.3%	-10.0%	6.0%	1.0%
34	COc1ccccc1C1/C(=C(/O)c2ccc(C)cc2)C(=O)C(=O)N1Cc1ccco1 (stereo unspecified)	-0.9%[46.1 µM]	10.3%	-11.3%	0.6%	9.2%	?	-7.5%	-5.5%
35	Cc1nnc(SCc2ccccc2CSc2nnc(C)s2)s1	?	-19.1%	5.4%	-3.7%	.	-1.7%	.	.
36	NC(=O)C1CCN(Cc2nc(-c3cccs3)no2)CC1	-29.2%	36.4%[activator]	-16.1%	1.7%	1.0%	1.0%	.	.
37	Cc1cccc(NS(=O)(=O)c2cc(C(=O)N3CCc4ccccc4C3)ccc2Cl)c1C	-12.7%	-39.0%	-8.9%	?	3.0%	0.7%	-2.6%	6.5%
38	COc1ccc(CN2C(=O)C(C)N(C(=O)c3c(F)cccc3F)c3ccccc32)cc1 (stereo unspecified)	.	35.5µM*	1.9%	.	-15.5%	-4.8%	.	.
39	O=C(Cn1cnc2ccccc21)c1ccc(Cl)cc1	19.7%	23.1%	-16.6%	0.8%	12.0%	1.1%	.	.
40	C/C(=N\NC(=O)c1cnccn1)c1ccc([N+](=O)[O-])cc1	-0.1%[46.1 µM]	17.7%	-2.8%	8.5%	2.2%	-1.3%	.	.
41	CC1(C)CC(NC(=O)c2ccccc2)CC(C)(C)N1	-13.0%	-6.3%	2.1%	?	17.8%	9.6%	.	.
42	COc1ccc(/C=N/NC(=O)C2C(=O)NCC2c2ccccc2)c(OC)c1 (stereo unspecified)	28.4%	10.0%	-6.5%	-18.0%	-11.2%	9.9%	-5.2%	-1.9%
43	Cc1onc(-c2ccccc2Cl)c1C(=O)N1CCN(C/C=C/c2ccccc2)CC1	-19.1%	.	-5.3%	-19.2%	-20.1%	-3.5%	0.2%	14.8%
44	COCCCNC(=O)CNC(=O)c1nn(-c2ccc(OC)cc2OC)c(=O)c2ccccc12	.	-4.8%	-1.1%	.	-0.9%	3.0%	.	.
45	CCOC(=O)C1CCN(C(=S)Nc2cccc(C)c2)CC1	2.2%	.	8.9%	-2.4%	4.0%	-2.6%	-0.5%	-18.7%
46	CCC(Sc1nc2ccccc2c2nc(-c3ccccc3)nn12)C(=O)Nc1cccc(OC)c1 (stereo unspecified)	.	-21.4%	.	1.3%[46.1 µM]	.	.	3.4%	-2.4%
47	CCCCCCCC(=O)N1c2ccccc2NC(=O)C1CC(=O)Nc1ccc(C(=O)O)cc1 (stereo unspecified)	-3.3%[46.1 µM]	0.4%	-4.5%	-14.4%	18.6%	2.1%	.	.
48	CN(CC(=O)Nc1ccc(F)cc1)C(=O)COC(=O)Cc1c(F)cccc1Cl	3.2%[46.1 µM]	-18.8%	8.0%	-21.7%	.	-1.0%	.	.
49	COc1ccccc1CNC(=O)/C=C/C(=O)O	-13.5%	-19.3%	2.5%	3.1%	-2.1%	-2.9%	.	.
50	CCN(CC)CCN1C(=O)C(O)=C(C(=O)c2cc3cccc(OC)c3o2)C1c1cccs1 (stereo unspecified)	6.5%[46.1 µM]	-1.0%	2.0%	-1.1%[46.1 µM]	3.4%	1.0%	.	.
51	NC(=O)CCS(=O)(=O)CCN1CCN(S(=O)(=O)c2ccc3c(c2)CCC3)CC1	11.2%	-17.3%	17.6%	9.3%	.	-2.1%	.	.
52	O=C(CN(Cc1cccs1)C(=O)CSc1nnc(COc2ccccc2)o1)NC1CCCC1	-0.1%&5.5%	.	-8.5%	-11.4%	-16.4%	-0.8%	-3.3%	1.5%
53	CCOc1ccc(N(C)c2ccc(/C=C3/SC(=S)NC3=O)cc2)cc1	?	-16.3%	25.2%	?	-13.6%	4.1%	.	.
54	CCOC(=O)NC(=S)Nc1ccc(OC)cc1	.	53.3%[activator]	-4.9%	.	3.2%	0.7%	.	.

An unsorted share of the library. About 4.7% of those tested had a hit in this group.
